Mtb growth: M. tuberculosis H37Rv growth inhibitors, H37Rv strain (AID 1626); M. tuberculosis H37Rv growth inhibition; higher % means a stronger effect; hit rate 0.95% among 220,000; inhibition, % at 10 µM; hits with a dose series show IC50 in µM;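 active = confirmed in a dose series; inconclusive = inhibition above 80% but not taken into the dose series; inactive = below 80% or under 30% at every dose of the series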;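 also: bacteria incubated seven days before Alamar blue readout; 0% = bacteria only wells and 100% = bacteria with antibiotic wells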
RecA intein inh: Mtb RecA intein splicing inhibitors, primary screen, biochemical, fluorescence, HTS | Protein RecA (Mycobacterium tuberculosis (strain ATCC 25618 / H37Rv)), P9WHJ3 | cell-free RecA intein splicing | hit rate 0.75% among 290,000 | AID 2221, 2009 | inhibition, %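 (about 9 µM by stock and volumes)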; in the data active = inhibition above about 30%; inconclusive = no clear call, values can overlap the other calls;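 also: 0% = vehicle wells and 100% = reference inhibitor control wells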
Target sequence (P9WHJ3 whole entry, looked up): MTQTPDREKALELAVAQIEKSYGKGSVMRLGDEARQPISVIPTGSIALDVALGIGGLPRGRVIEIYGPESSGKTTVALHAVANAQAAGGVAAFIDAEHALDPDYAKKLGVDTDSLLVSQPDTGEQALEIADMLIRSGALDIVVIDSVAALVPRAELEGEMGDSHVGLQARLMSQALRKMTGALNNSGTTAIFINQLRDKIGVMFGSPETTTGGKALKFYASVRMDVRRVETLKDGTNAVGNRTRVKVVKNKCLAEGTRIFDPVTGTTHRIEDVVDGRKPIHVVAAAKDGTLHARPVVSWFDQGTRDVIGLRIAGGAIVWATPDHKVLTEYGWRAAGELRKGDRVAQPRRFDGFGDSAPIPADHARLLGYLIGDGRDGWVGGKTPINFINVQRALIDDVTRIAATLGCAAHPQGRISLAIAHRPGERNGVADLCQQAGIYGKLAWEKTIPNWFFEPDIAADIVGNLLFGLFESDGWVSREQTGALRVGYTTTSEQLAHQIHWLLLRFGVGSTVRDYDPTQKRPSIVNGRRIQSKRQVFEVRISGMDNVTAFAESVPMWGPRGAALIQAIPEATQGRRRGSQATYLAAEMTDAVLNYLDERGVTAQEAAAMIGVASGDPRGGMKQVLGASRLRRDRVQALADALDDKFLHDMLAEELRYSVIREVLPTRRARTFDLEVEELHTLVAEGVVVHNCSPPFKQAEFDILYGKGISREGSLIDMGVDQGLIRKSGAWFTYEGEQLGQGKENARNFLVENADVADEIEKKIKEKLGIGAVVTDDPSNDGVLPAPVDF
Arbovirus anti: antivirals against arbovirus infection, primary screen, cell-based, full library, 10K replicate subset | hit rate 0.37% among 200,000 | inhibition, % at 10 µM | AID 1251, 2008 | arbovirus infection cell-based antiviral screen;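 active = inhibition from about 30%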;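 also: bluetongue infection of BSR cells; cell survival read as ATP light after 72 h; 0% = infected wells without compound and 100% = uninfected wells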
Mtb bLac sens: beta-lactam sensitization of Mtb H37Rv, H37Rv; M. tuberculosis H37Rv growth with meropenem, percent inhibition; hits of this screen are not shown here; inhibition, % at 25 µM; hit rate 0.27% among 330,000; AID 434955, 2010;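 active = about 74% or more and at least 40 points above the plate without the antibiotic, then above 30% in a dose series; inconclusive = first-round hits that could not be retested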;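 also: growth measured after seven days incubation then overnight dye step; 0% = bacteria only wells and 100% = bacteria with antibiotic; twin plates without the antibiotic show which effects depend on it; some results filed as inactive read as strong as hits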
YopH inh: YopH tyrosine phosphatase inhibitors, primary screen, biochemical, fluorescence Ex485/Em525; YopH tyrosine phosphatase [Yersinia enterocolitica]; inhibition, %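 (about 10 µM by stock and volumes)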; hit rate 0.16% among 140,000; AID 898, 2007;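 active = inhibition of 50% or more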;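 also: controls were vehicle for no effect and minimum signal wells for full effect; inactives centre near -20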
Arbovirus anti repeat: second read-out of Arbovirus anti, no call of its own (marks repeat the call); inhibition, %; measured here: 10K subset replicate screen; many hits read low in the repeat;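 first of two repeat runs on a subset; 0% = infected and 100% = uninfected wells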
An asterisk follows results filed as active; ? = inconclusive; . = not tested or not shown. Some of the compounds tested (hit frequency here may not be typical).

SMILES	Mtb growth	RecA intein inh	Arbovirus anti	Mtb bLac sens	YopH inh	others
Oc1c(Br)cc(Br)cc1C=Nc1cccc2ncccc12	.	-2.8	.	2	.
O=C(NC1CCCCC1)C(c1ccccc1)N(Cc1ccco1)C(=O)Cn1cnc2ccccc21 (stereo not given)	7%	-0.4	15	.	-13
CCCCNS(=O)(=O)c1cccc(S(=O)(=O)N2CCCC2)c1	-2%	2.0	-3	-13	-37
Cc1c(C)n(C(=O)CN2CCN(c3ccccn3)CC2)c2ccccc12	0%	2.5	4	-2	-11
COc1ccccc1-c1nnn(C/C(N)=N/O)n1	0%	0.3	8	-4	-23
COc1ccc(CCNC2CCCCCC2)cc1	.	0.5	.	-9	.
CC(=O)N=c1sc2nc3ccccc3nc2n1N(C(C)=O)C(C)=O	-8%	-1.8	5	-6	-28
O=C(NN=C1CCN(Cc2ccccc2)CC1)C(O)c1ccccc1 (stereo not given)	1%	-5.7	2	-14	-31
O=C(COC(=O)c1ccc([N+](=O)[O-])cc1Cl)Nc1cccnc1Cl	.	-3.4	.	-4	.
COc1ccc(S(=O)(=O)N2CCCCC2)cc1NS(=O)(=O)c1ccccc1F	0%	.	15	-1	.
COc1ccc(CN2CC(C(=O)N3CCOCC3)CC2=O)cc1 (stereo not given)	.	0.3	5	1	-1
CCOc1ccc(OCC(=O)OCc2csc(CC(=O)Nc3ccccc3C)n2)cc1	.	-0.8	.	31	.
CC1=[N+](C)c2ccc3ccccc3c2C1(C)C	?	22	-13	2	1
Cc1onc(-c2ccccc2)c1C(=O)Nc1ccc(S(=O)(=O)NC2=NCCCCC2)cc1	-4%	-0.7	-2	5	-58
CCN(CC)CCCNC(=O)c1ccc2c(Cl)c3c(nc2c1)CCCC3	2%	3.2	0	-3	.
O=C1NC2(CCCCC2)N=C1c1ccccc1	2%	-3.3	16	-10	-10
CCCC(=O)N1c2ccccc2[C@@H](N(C(C)=O)c2ccccc2)C[C@H]1C	2%	-2.5	-2	-3	-45
C#CCOC(=O)CCCNc1ccc([N+](=O)[O-])cc1[N+](=O)[O-]	-11%	3.8	1	25	-14
CCCCNC(=S)NNC(=O)c1csc(C)c1	-11%	-2.5	2	2	-30
Cc1ccc(S(=O)(=O)CC(=O)Nc2nnc(C)s2)cc1	.	-0.7	.	3	.

The last 3 records of the section above are carried over, then new ones follow:
SMILES	Mtb growth	RecA intein inh	Arbovirus anti	Mtb bLac sens	YopH inh	others
C#CCOC(=O)CCCNc1ccc([N+](=O)[O-])cc1[N+](=O)[O-]	-11%	3.8	1	25	-14
CCCCNC(=S)NNC(=O)c1csc(C)c1	-11%	-2.5	2	2	-30
Cc1ccc(S(=O)(=O)CC(=O)Nc2nnc(C)s2)cc1	.	-0.7	.	3	.
COc1ccccc1NS(=O)(=O)c1cccc(NC(=O)Nc2cccc(Cl)c2)c1	-7%	1.1	-9	1	-26
O=c1[nH]c(N2CCOCC2)cc2ccccc12	-6%	69*	.	-11	.
COC(=O)c1ccc(Oc2nc(Nc3ccc(F)cc3)nc(N3CCCC3)n2)cc1	-3%	0.4	-11	13	-12
CC(C)CCNC(=O)C(c1ccco1)N(CCCO)C(=O)Cn1nnc(-c2ccc(F)cc2)n1 (stereo not given)	-2%	2.7	-8	-5	.
CCCC(=O)Nc1ccc(NC(=O)c2ccccc2Cl)nc1	7%	1.6	-3	-2	-51
CCc1ccccc1N1CC(C(=O)Nc2nccs2)CC1=O (stereo not given)	.	-0.3	.	-4	.
O=C(CCCCO)CCCCCCCC[C@H]1N[C@H](CO)[C@H](O)[C@@H]1O[C@@H]1O[C@H](CO)[C@@H](O)[C@H](O)[C@H]1O	-7%	0.5	4	-5	-38
COc1ccc(C2/C(=C(\O)c3ccc4c(c3)OCCO4)C(=O)C(=O)N2CCCN(C)C)c(OC)c1 (stereo not given)	2%	2.2	.	-7	.
Cc1sc2nc(CSc3nnnn3-c3ccc(Cl)cc3)[nH]c(=O)c2c1C	11%	-6.2	10	2	-15
Cc1ccc(C2NC(=S)NC3=C2C(=O)CCC3)cc1 (stereo not given)	-2%	-1.7	4	0	.
O=C(COc1ccccc1C(=O)c1cnn(-c2ccccc2)c1)Nc1ccc2ccccc2c1	39%	-1.6	2	-1	-10
COc1ccc(-c2cc(C(=O)NC(Cc3cc4ccccc4[nH]3)C(=O)O)c(C)o2)cc1OC (stereo not given)	7%	-3.3	6	4	.
Cc1cccc(C(C)C)c1NC(=O)COC(=O)Cc1ccsc1	2%	-0.7	6	7	-3
CC(Oc1ccccc1Cl)C(=O)Nc1ccc(S(=O)(=O)Nc2nccs2)cc1 (stereo not given)	.	6.7	.	-10	.
CC(=O)Nc1nonc1NC(=O)CSc1ncn[nH]1	-3%	-5.2	2	?	-20
COC(=O)c1ccc(CSc2nnc(SCc3ccc(C(=O)OC)o3)s2)o1	20%	0.7	3	5	-30
CC(NC(=O)Cn1cc([N+](=O)[O-])cn1)c1ccc(C(C)(C)C)cc1 (stereo not given)	.	1.9	.	-3	.
Cc1ccc(S(=O)(=O)N2CCC(C(=O)NCCc3ccccc3)CC2)cc1	-4%	-2.3	2	-14	21
COc1cccc(NS(=O)(=O)c2cc3c(cc2C)N(C)CCO3)c1	.	1.2	.	0	.
Cc1cccc(OCCCC(=O)N2CCCCCC2)c1C	.	3.6	.	3	.

Compounds listed so far that contain a Cl atom, in the order listed:
SMILES	Mtb growth	RecA intein inh	Arbovirus anti	Mtb bLac sens	YopH inh	others
O=C(COC(=O)c1ccc([N+](=O)[O-])cc1Cl)Nc1cccnc1Cl	.	-3.4	.	-4	.
CCN(CC)CCCNC(=O)c1ccc2c(Cl)c3c(nc2c1)CCCC3	2%	3.2	0	-3	.
COc1ccccc1NS(=O)(=O)c1cccc(NC(=O)Nc2cccc(Cl)c2)c1	-7%	1.1	-9	1	-26
CCCC(=O)Nc1ccc(NC(=O)c2ccccc2Cl)nc1	7%	1.6	-3	-2	-51
Cc1sc2nc(CSc3nnnn3-c3ccc(Cl)cc3)[nH]c(=O)c2c1C	11%	-6.2	10	2	-15
CC(Oc1ccccc1Cl)C(=O)Nc1ccc(S(=O)(=O)Nc2nccs2)cc1 (stereo not given)	.	6.7	.	-10	.

(cont.)
SMILES	Mtb growth	RecA intein inh	Arbovirus anti	Mtb bLac sens	YopH inh	others
N#CC1(c2ccccc2)CCCN1C(=O)c1ccccc1Cl (stereo not given)	3%	1.7	2	-5	-19
CC(On1c(-c2ccccc2)nc2ccc(Cl)cc21)C(=O)O (stereo not given)	-2%	0.7	2	-7	.
CC(=O)n1cc([C@@H]2C=C(C(=O)NCc3ccccc3)O[C@H](OCc3ccc(CO)cc3)C2)c2ccccc21	5%	12	.	18	.
CC(NC(=O)COC(=O)c1ccccc1Nc1ccccc1)c1ccccc1 (stereo not given)	3%	-9.6	11	24	-35
O=C(Nc1cccc(-c2nc3ccccc3[nH]2)c1)c1ccccn1	.	2.7	.	4	.
Cc1ccc(S(=O)(=O)NCc2cn3ccsc3n2)c(C)c1	0%	0.3	11	5	-16
CCC(C)NCCCCOc1ccc(C)cc1[N+](=O)[O-] (stereo not given)	0%	-1.1	-4	3	-28
COc1ccc(CC(=O)OC(C)CN2CCOCC2)cc1 (stereo not given)	-5%	-3.1	4	1	.
COc1ccccc1N1CC(C(=O)Nc2nnc(SC)s2)CC1=O (stereo not given)	.	0.7	.	2	.
COc1ccc(C2/C(=C(/O)c3ccccc3)C(=O)C(=O)N2c2ccccn2)c(OC)c1 (stereo not given)	-9%	0.1	4	-3	-29
O=C(NCc1ccccn1)C1CCN(S(=O)(=O)c2cccs2)CC1	-3%	-0.8	1	-3	5
O=C(CN1C(=O)/C(=C\c2ccccc2Cl)Sc2ccccc21)NCCCN1CCOCC1	.	-2.1	.	3	.
Cc1nc2ccccc2c2oc(C(=O)NCc3ccc4c(c3)OCO4)cc12	7%	2.2	-8	-4	-22	Arbovirus anti repeat=-5
Cc1ccc(C2CC(=O)N3CN(Cc4ccco4)CSC3=C2C#N)cc1 (stereo not given)	-5%	4.2	1	-5	-50
CCN(c1cccc(C)c1)S(=O)(=O)c1cc2c3c(c1)CCC(=O)N3CCC2	.	4.8	.	-10	.
Cc1ccc(NC(=O)CCC(=O)NNC(=O)c2ccccc2Cl)c(C)c1	-1%	0.3	5	-4	.
Cc1cc(Cl)ccc1OCCCC(N)=O	-1%	0.3	10	0	-44
COCCNC(=O)c1cc2c(-c3ccccc3F)nn(C)c2s1	.	1.3	-2	1	-21
COc1ccccc1C(=O)n1nc(-c2ccc(Cl)cc2)nc1N	.	2.8	-10	11	-7
Cc1ccccc1CCNC(=O)Cn1ccc2cc(S(=O)(=O)N3CCCC3)ccc21	.	0.6	.	-7	.
COc1cccc(NC(=O)[C@H](CC(C)C)NC(=O)N2CCn3c2nc2ccccc23)c1	.	3.9	.	13	.
Cc1cc(OC(C)C(=O)Nc2ccccc2C(=O)N2CCCC2)ccc1Cl (stereo not given)	.	6.0	.	-2	.
CCOC(=O)C(=O)NNc1ccc(Cl)cc1	?	-4.4	-24	95	.
Cc1c(N2C(=O)/C(=C\C3CC=CCC3)SC2=S)c(=O)n(-c2ccccc2)n1C (stereo not given)	1%	20	-5	-5	.
O=C(c1ccco1)N1CCN(c2ncnc3c2[nH]c2ccc(Cl)cc23)CC1	4%	-1.2	-4	42	-26
CC(C)(C)c1ccc(/C=C(\C#N)C(=O)Nc2ccccn2)cc1	.	-0.1	.	2	.
COC(=O)c1ccccc1NC(=O)CNC(=O)c1ccco1	-10%	1.1	1	6	-42
CC1CCc2nn(CC(=O)NCc3ccco3)cc2C1 (stereo not given)	-6%	1.9	-3	-10	-18	Arbovirus anti repeat=-1
CCOc1ccccc1NC(=O)COC(=O)c1cc[n+]([O-])cc1	5%	-1.6	.	-2	.
COc1ccc(/C=C2\SC(=S)N(CCC(=O)NC3CCCC3)C2=O)cc1OC	.	0.2	.	-10	.
C=CCn1c(CNC(=O)c2ccco2)nnc1SCC(=O)c1ccc(F)cc1	.	1.1	.	-3	.
CCc1ccc(C(=O)Nc2cccc(-c3nn[nH]n3)c2)s1	.	2.3	.	3	.
COc1ccc(C)cc1NC(=O)N1CCCc2ccccc21	6%	.	2	42	.
O=C(c1ccc2c(=O)n3c(nc2c1)CCCCC3)N1CCN(c2ccccc2F)CC1	.	0.7	.	1	.
CCCN(CC(=O)Nc1ccccc1C)C(=O)c1cccc(-n2cnnn2)c1	.	-0.7	.	-12	.
N#C/C(=C/c1ccc(-c2ccc(C(=O)O)c(Cl)c2)o1)C(=O)NCC1CCCO1 (stereo not given)	-2%	.	3	-8	-5
CC1=NN(c2ccccc2)C(=O)/C1=C/c1ccc(Cl)cc1	.	85*	.	6	.
O=[N+]([O-])c1ccc(NCCCN2CCOCC2)c2ncccc12	2%	3.5	-3	0	.
Cc1cccn2c(=O)nc(SCC(=O)c3ccc(Cl)cc3)nc12	.	2.5	.	-6	.
Cc1ccc(C(=O)N/C(=C/c2ccc(-c3cc(C(F)(F)F)ccc3Cl)o2)C(=O)NCc2cccnc2)cc1	5%	.	-16	19	-11
C/C(=N\NC(=O)CNC(=O)c1ccc(F)cc1)c1ccco1	.	1.5	.	-1	.
CSc1ccc(CCNC(=O)c2cccc3c2C(=O)N(C2CCCCC2)C3)cc1	.	0.2	.	11	.
Cc1cc2nc(-c3ccc(SCC(=O)Nc4ccc(S(=O)(=O)N5CCCC5)cc4)nc3)[nH]c2cc1C	9%	1.4	-36	0	-8
O=C(CNC(=O)c1cccs1)OCC(=O)c1ccc(Br)cc1	-3%	-1.0	2	-7	.
O=C(CNC(=O)c1cccc(Cl)c1)Nc1ccc(F)c(F)c1F	.	-1.3	.	7	.
COc1ccc(O)c(/C=N/Nc2nc(Nc3ccccc3)nc(-n3nc(C)cc3C)n2)c1	?	-3.5	-6	99	-16
Cc1ccc(N2CCN(C(=O)c3nn(C)c4c3CS(=O)(=O)c3ccccc3-4)CC2C)cc1 (stereo not given)	.	1.3	.	17	.
O=C(/C=C/c1ccco1)N1CCN(S(=O)(=O)c2cccs2)CC1	0%	1.9	.	-2	.
COc1ccccc1-n1c(SCC(=O)Nc2ccccc2F)nc2[nH]ncc2c1=O	0%	1.2	10	-3	-23
CCOC(=O)c1c(NC(=S)NC)sc2c1CCCC2	-10%	-0.8	.	57	.
COc1ccc(/C=N\NC(=O)c2ccc(-c3ccccc3)cc2)c(OC)c1OC	.	-0.4	.	0	.

Screens: PubChem, several laboratories
